Mtb betalactam – beta-lactam sensitization of Mtb H37Rv; M. tuberculosis H37Rv growth with meropenem, percent inhibition; hits of this screen are not shown here; inhibition, % at 25 µM; actives 0.27% (n = 330,000);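 active means about 74% or more and at least 40 points above the plate without the antibiotic, then above 30% in a dose series; inconclusive means first-round hits that could not be retested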;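 further: growth measured after seven days incubation then overnight dye step; 0% = bacteria only wells and 100% = bacteria with antibiotic; twin plates without the antibiotic show which effects depend on it; some results filed as inactive read as strong as hits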
Arbovirus anti – arbovirus infection inhibition. arbovirus infection cell-based antiviral screen. inhibition, % at 10 µM. actives 0.37% (n = 200,000);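 active means inhibition from about 30%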;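 further: bluetongue infection of BSR cells; cell survival read as ATP light after 72 h; 0% = infected wells without compound and 100% = uninfected wells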
RecA splice inh – Mtb RecA intein splicing inhibition | P9WHJ3 | cell-free RecA intein splicing, fluorescence | inhibition, %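 (about 9 µM by stock and volumes)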 | actives 0.75% (n = 290,000) | AID 2221; in the data active means inhibition above about 30%; inconclusive means no clear call, values can overlap the other calls;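 further: 0% = vehicle wells and 100% = reference inhibitor control wells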
Target sequence (P9WHJ3 whole entry, looked up, canonical isoform): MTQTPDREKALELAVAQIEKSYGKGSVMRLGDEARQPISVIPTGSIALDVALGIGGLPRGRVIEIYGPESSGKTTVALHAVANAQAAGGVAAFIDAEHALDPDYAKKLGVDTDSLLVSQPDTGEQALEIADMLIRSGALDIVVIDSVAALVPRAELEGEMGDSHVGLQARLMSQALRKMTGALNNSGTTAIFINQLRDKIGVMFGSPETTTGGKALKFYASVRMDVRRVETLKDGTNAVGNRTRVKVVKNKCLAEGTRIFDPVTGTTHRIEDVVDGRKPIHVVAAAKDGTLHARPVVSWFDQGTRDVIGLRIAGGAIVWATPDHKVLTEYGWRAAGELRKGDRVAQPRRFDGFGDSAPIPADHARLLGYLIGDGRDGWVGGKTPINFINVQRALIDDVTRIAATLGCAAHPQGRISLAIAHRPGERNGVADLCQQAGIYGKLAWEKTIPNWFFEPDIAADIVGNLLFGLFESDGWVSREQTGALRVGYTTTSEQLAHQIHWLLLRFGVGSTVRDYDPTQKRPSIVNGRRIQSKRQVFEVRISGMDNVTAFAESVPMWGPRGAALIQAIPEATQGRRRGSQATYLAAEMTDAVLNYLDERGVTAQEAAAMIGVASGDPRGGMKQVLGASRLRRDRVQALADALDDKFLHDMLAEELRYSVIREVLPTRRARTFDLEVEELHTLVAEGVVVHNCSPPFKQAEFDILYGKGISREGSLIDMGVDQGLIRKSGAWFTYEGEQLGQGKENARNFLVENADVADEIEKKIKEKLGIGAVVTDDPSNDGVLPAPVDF
YopH PTP inh – blocks Yersinia enterocolitica YopH tyrosine phosphatase; fluorescence Ex485/Em525; inhibition, %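 (about 10 µM by stock and volumes)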; actives 0.16% (n = 140,000); AID 898;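 active means inhibition of 50% or more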;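 further: controls were vehicle for no effect and minimum signal wells for full effect; inactives centre near -20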
Mtb growth – M. tuberculosis H37Rv growth inhibitors, H37Rv strain (AID 1626). inhibition, % at 10 µM; hits with a dose series show IC50 in µM. actives 0.95% (n = 220,000). M. tuberculosis H37Rv growth inhibition; higher % means a stronger effect;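 active means confirmed in a dose series; inconclusive means inhibition above 80% but not taken into the dose series; inactive means below 80% or under 30% at every dose of the series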;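 further: bacteria incubated seven days before Alamar blue readout; 0% = bacteria only wells and 100% = bacteria with antibiotic wells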
Arbovirus anti repeat – further read-out of Arbovirus anti, marked with its call; inhibition, %; measured here: 10K subset replicate screen; many hits read low in the repeat;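 first of two repeat runs on a subset; 0% = infected and 100% = uninfected wells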
* marks the source's active call; other numbers are inactive results; ? = inconclusive; . = no result given.

The first 14 records as a preview:
SMILES	Mtb betalactam	Arbovirus anti	RecA splice inh	YopH PTP inh	Mtb growth	others
O=C(Nc1ccc(F)cc1F)c1ccco1	-1	4	0.6	-12	-11%
Cc1ccc(-n2c(C)cc(=O)cc2C)c(C)c1	-3	-2	-2.1	-30	9%
OCC1(CCc2ccccc2)CCCN(CCCC(F)(F)F)C1 (configuration not stated)	1	.	-0.3	.	.
COc1ccc(C2CC(c3cccc(OC)c3)n3nc(N)nc3N2)cc1 (configuration not stated)	4	0	-3.4	-25	1%	Arbovirus anti repeat=1
CCCN1C(=O)N(c2cccc(C)c2)C(C)(O)CC1(C)C (configuration not stated)	-6	.	-1.9	.	5%
COc1ccc(S(=O)(=O)N(CC(=O)NCc2cccnc2)c2ccc(C)cc2)cc1OC	4	.	-1.2	.	.
FC(F)(F)c1ccccc1-n1c(CN2CCCCC2)n[nH]c1=S	2	.	-5.4	.	6%
COc1ccc(/C=N/NC(=O)c2ccc(Br)cc2)cc1Cn1cc(Cl)cn1	3	-1	1.9	-3	5%
CCN(CC)C(=O)CC(c1ccccc1)c1ccco1 (configuration not stated)	0	10	0.8	-16	-14%
COc1ccc(NC(=O)CC(c2ccccc2)c2ccco2)cc1 (configuration not stated)	9	-8	5.2	.	1%
C/C(=N/NC(=O)CNC(=O)c1cccnc1)c1ccc([N+](=O)[O-])cc1	1	1	0.3	.	-6%
COc1ccc(C(=O)Nc2ccc(C(=O)N3CCCC3)cc2)cc1[N+](=O)[O-]	-1	.	-7.4	.	.
CN(c1cccc(NC(=O)c2ccccc2N(C)S(C)(=O)=O)c1)S(C)(=O)=O	5	0	.	-29	-13%
COc1ccc(NC(=O)CSc2nc(C)cs2)c(OC)c1	-8	-6	.	.	1%

The listing (from the top)
SMILES	Mtb betalactam	Arbovirus anti	RecA splice inh	YopH PTP inh	Mtb growth	others
O=C(Nc1ccc(F)cc1F)c1ccco1	-1	4	0.6	-12	-11%
Cc1ccc(-n2c(C)cc(=O)cc2C)c(C)c1	-3	-2	-2.1	-30	9%
OCC1(CCc2ccccc2)CCCN(CCCC(F)(F)F)C1 (configuration not stated)	1	.	-0.3	.	.
COc1ccc(C2CC(c3cccc(OC)c3)n3nc(N)nc3N2)cc1 (configuration not stated)	4	0	-3.4	-25	1%	Arbovirus anti repeat=1
CCCN1C(=O)N(c2cccc(C)c2)C(C)(O)CC1(C)C (configuration not stated)	-6	.	-1.9	.	5%
COc1ccc(S(=O)(=O)N(CC(=O)NCc2cccnc2)c2ccc(C)cc2)cc1OC	4	.	-1.2	.	.
FC(F)(F)c1ccccc1-n1c(CN2CCCCC2)n[nH]c1=S	2	.	-5.4	.	6%
COc1ccc(/C=N/NC(=O)c2ccc(Br)cc2)cc1Cn1cc(Cl)cn1	3	-1	1.9	-3	5%
CCN(CC)C(=O)CC(c1ccccc1)c1ccco1 (configuration not stated)	0	10	0.8	-16	-14%
COc1ccc(NC(=O)CC(c2ccccc2)c2ccco2)cc1 (configuration not stated)	9	-8	5.2	.	1%
C/C(=N/NC(=O)CNC(=O)c1cccnc1)c1ccc([N+](=O)[O-])cc1	1	1	0.3	.	-6%
COc1ccc(C(=O)Nc2ccc(C(=O)N3CCCC3)cc2)cc1[N+](=O)[O-]	-1	.	-7.4	.	.
CN(c1cccc(NC(=O)c2ccccc2N(C)S(C)(=O)=O)c1)S(C)(=O)=O	5	0	.	-29	-13%
COc1ccc(NC(=O)CSc2nc(C)cs2)c(OC)c1	-8	-6	.	.	1%
CCNC(=O)CN(c1ccc(F)cc1)S(=O)(=O)c1ccc2c(c1)OCCO2	-1	.	4.5	.	.
C#CCn1cc(/C=N/NC(=O)COc2cccc3cccnc23)c2ccccc21	0	-3	0.5	-14	-1%
COc1ccccc1N1CCN(C(=O)C2CCN(S(=O)(=O)c3ccc4c(c3)CC(C)N4C(C)=O)CC2)CC1 (configuration not stated)	6	.	-0.6	.	.
CC(C)(C)c1ccc(C2=CC(c3ccccc3F)n3ncnc3N2)cc1 (configuration not stated)	18	.	-63	.	-6%
Fc1ccc(N=Cc2ccc[nH]2)cc1	3	.	-0.1	.	.
Cc1cccc(/C=N\NC(=O)c2ccc(Cl)cc2)c1O	37	-31	-0.1	.	-1%
O=C(O)C(NC(=O)C1CCCN1C(=O)OCc1ccccc1)c1ccccc1 (configuration not stated)	9	.	-1.7	.	.
Cn1c(=O)c2c(nc(NC3CCCCC3)n2CC(=O)C23CC4CC(CC(C4)C2)C3)n(C)c1=O	-3	-10	-0.5	-27	8%
O=C(CN1CCSC1=NCc1ccccc1)c1ccc(Cl)c(Cl)c1	9	1	8.7	-8	12%
Cc1cc(=O)n2nc(N3CCC(C(=O)Nc4c(F)c(F)c(F)c(F)c4F)CC3)sc2n1	3	.	0.1	.	.
Cc1ccc(NC(=O)C(OC(=O)c2ccc(F)cc2)c2ccccc2)cc1Cl (configuration not stated)	0	-6	2.2	-31	.
SMILES	Mtb betalactam	Arbovirus anti	RecA splice inh	YopH PTP inh	Mtb growth	others
O=C(C[n+]1cc(-c2ccc(F)cc2)n2c1CCC2)Nc1nc(-c2ccccc2)cs1	82	-7	4.6	-20	79%
CN1CCN(c2ccc(NC(=O)Cc3ccccc3)cc2)CC1	6	-3	1.2	1	3%
COc1ccccc1N1CCN(C2CCN(C3CCC(c4ccccc4)CC3)CC2)CC1 (configuration not stated)	0	-14	-2.6	.	5%
Cc1cc(/C=C2/NC(=O)NC2=O)c(C)n1-c1ccccn1	-5	0	3.1	-25	-8%
CCn1nc(NC(=O)Cc2ccc(OC)cc2)c2cc3cc(C)ccc3nc21	2	.	-3.0	.	-2%
COc1ccc2c(c1)c(C(=O)N/N=C/c1ccccc1Cl)c(C)n2C	3	.	7.2	.	4%
CC(=O)c1ccc2c(c1)Nc1ccccc1S2	56	6	-3.7	11	25%
CCOC(=O)c1c(C)oc2ccc(OC(=O)c3cccs3)cc12	99	2	4.3	-29	2.1µM*
COc1ccc(OC)c2c(=O)cc(C(=O)O)[nH]c12	-4	.	0.3	.	0%
CCCCCCCN=C(C)c1ccccc1O	-5	.	2.5	.	-3%
O=C(Nc1ccccc1F)NC1CCCc2ccccc21 (configuration not stated)	-1	.	.	.	-5%
CC(C)(C)NC(=O)CN1C(=O)NC(c2ccccc2)(c2ccccc2)C1=O	-2	.	0.3	.	.
COC(=O)c1cccc(Oc2nc3c(c(=O)n(C)c(=O)n3C)n2Cc2ccc(C)cc2)c1	8	.	-2.6	.	.
COc1cc(NC2c3ncccc3C(=O)N2Cc2ccco2)cc(OC)c1 (configuration not stated)	-2	-2	3.6	-39	0%
CC(C)COC(=O)c1nnsc1NC(=O)Nc1ccccc1	14	4	1.0	18	1%
COc1ccc2cc(CCN3C(=O)c4ccccc4C3=O)c(=O)[nH]c2c1	3	3	-0.7	-28	.
CC(C)Oc1ccc(C(=O)Nc2ccc(Cl)c(S(=O)(=O)Nc3ccc(Cl)cc3)c2)cc1	99	-38	10	-36	12µM*
CNc1nn(-c2cccc(Cl)c2)nc1N	60	-12	-3.2	20	7%
Clc1cccc(Cl)c1NC1=NCCC1	3	3	-0.6	1	-2%
CC(=O)N(C(C)=O)c1cccc2c(N(C(C)=O)C(C)=O)cccc12	-1	8	-0.4	-23	-7%
COC(=O)C1=CN(Cc2ccc(OC)cc2)C=C(C(=O)OC)C1c1cc(OC)c(OC)c(OC)c1	0	.	-17	.	.
CC(=O)NC1=NN(C(C)=O)C(C)(c2cccnc2)S1 (configuration not stated)	4	2	1.5	.	-9%
COc1cc(CO)c(OC)c([N+](=O)[O-])c1	8	.	-0.7	.	.
CCOC(=O)Cn1c(=O)oc2cc(S(=O)(=O)N3CCC(N4CCCCC4)CC3)ccc21	3	-1	-2.5	-24	2%	Arbovirus anti repeat=-1
Clc1ccc(C2=NCCN2)cc1	-4	3	-1.9	.	5%
SMILES	Mtb betalactam	Arbovirus anti	RecA splice inh	YopH PTP inh	Mtb growth	others
O=C(NC(N1CCCC1)C(Cl)(Cl)Cl)c1ccccc1 (configuration not stated)	1	4	0.4	-42	-8%
O=C(Nc1nnc(C2=COCCO2)o1)c1ccc([N+](=O)[O-])s1	?	.	-4.8	.	.
Cc1ccc(C(=O)Nc2cc(C(F)(F)F)ccc2N2CCCCC2)cc1[N+](=O)[O-]	-15	-2	-1.4	-16	-4%
COc1ccc(CCC(=O)Nc2ccc(S(=O)(=O)N3CCOCC3)cc2)cc1	-1	.	2.0	.	.
OCC1(CCc2ccccc2)CCN(C/C=C/c2ccccc2)CC1	-3	.	0.0	.	.
CCN(CC)CCN(C(=O)CCOc1ccccc1)c1nc2c(F)cc(F)cc2s1	-3	8	2.6	.	-5%
Cc1ccc(NC2=NCC(=O)N2Cc2ccc3c(c2)OCO3)c(C)c1	-2	6	1.7	-27	2%
CC(C(=O)O)c1ccc(CC2CCCC2=O)cc1 (configuration not stated)	2	.	0.1	.	-8%
COc1ccc(-c2sc(C(=O)c3ccc(Cl)cc3Cl)cc2CC(=O)O)cc1	-4	.	-39	.	.
Cc1cccc(NC(=O)c2cnc3sccn3c2=O)n1	0	.	-1.8	-14	3%
O=C1c2ccccc2C(=O)N1CNc1ccccc1	2	5	-0.4	-2	-3%
COc1ccccc1NS(=O)(=O)c1cccc(N=C2N=C(N)c3ccccc32)c1	9	-18	-2.2	-6	1%
COc1cccc(NC(=O)c2nc(S(C)(=O)=O)ncc2Cl)c1	99	.	63*	.	.
CCCCCc1c(C)nc(N2CCc3ccccc32)[nH]c1=O	.	-2	-1.2	10	-3%
Cc1cc(C)n(-c2nc(-c3ccc(Cl)cc3)cs2)n1	43	-11	1.6	-10	-9%
CC(OC(=O)c1nn(C(C)C)c(=O)c2ccccc12)C(=O)Nc1ncc(Cl)cc1Cl (configuration not stated)	-5	-6	-2.2	-12	6%
COc1ccc2c(c1)C1NC(=S)NC(C)(O2)C1C(=O)Nc1ccc(Cl)cc1 (configuration not stated)	-2	16	3.6	-4	41%
COc1ccc(N(C2=NCCCS2)S(=O)(=O)c2ccc(C(C)(C)C)cc2)cc1	-5	1	1.0	.	8%
O=C(Cc1ccc(Cl)cc1)NNc1c(F)c(F)cc(F)c1F	1	7	2.4	-29	4%
Oc1ccc2ccccc2c1CN1CCN(C/C=C/c2ccccc2)CC1	6	.	-2.4	.	.
CC(C)N1C(=O)c2ccccc2C1C(=O)NCCc1ccccc1 (configuration not stated)	0	.	-0.5	.	.
COc1cc(CN(C)CC(=O)c2[nH]c(C)c(C(C)=O)c2C)ccc1OC(F)F	-2	0	3.9	22	2%
Cc1ccc(S(=O)(=O)N(C)CC(=O)N/N=C/c2ccc(C)o2)cc1	-1	.	-1.8	.	-12%
Cc1nc(SCc2cccc(F)c2)c2oc3ccccc3c2n1	82	.	0.5	.	0.59µM*
CC(=O)Nc1ccc(S(=O)(=O)NCCOc2ccc(Cl)cc2C)cc1	4	3	-1.2	.	2%
SMILES	Mtb betalactam	Arbovirus anti	RecA splice inh	YopH PTP inh	Mtb growth	others
Cn1cc(SCC(=O)NC2CCCCC2)c2ccccc21	7	.	0.3	.	.
CN(c1ccccc1)S(=O)(=O)c1ccc(-c2ccccc2)cc1	-13	.	-2.5	.	.
Cc1sc(NC(=S)NC(=O)c2cccs2)nc1-c1ccc(CC(C)C)cc1	0	12	1.2	-9	8%
COc1cccc(CNC(=O)CSCc2cnn(-c3ccccc3)c2-n2cccc2)c1	-5	-6	11	-28	-5%
CCOc1ccc(NC(=S)NC(=O)C2CCCC2)cc1	97	.	0.5	.	.
COc1ccc(C(=O)N(C)CC2CCN(CCc3cccc(C(F)(F)F)c3)CC2)cc1C	5	.	0.8	.	.
Cc1ccc(NS(=O)(=O)c2ccc3c(c2)C(=O)c2ccccc2C3=O)c(C)c1	5	-10	.	-18	5%
O=C(Cc1ccccc1)NNS(=O)(=O)c1ccccc1[N+](=O)[O-]	4	.	1.7	.	.
O=C(COc1ccc(Cl)cc1)N1CCN(C2CCCC2)CC1	-3	.	-3.1	.	.
CC(=O)N1CCc2c(sc(NC(=O)Cc3ccc(C)cc3C)c2C#N)C1	3	.	0.7	.	.
CCOc1ccc2[nH]c(=O)c(CN(CCO)Cc3nnnn3CCc3ccccc3)cc2c1	-5	6	-2.8	-13	-6%
CCOc1ccc(NC(=O)NCCCn2c(C)nc3cc(C)c(C)cc32)cc1	4	-6	-0.9	-15	-4%
CCNC(=O)NC(=O)CSc1ccccc1F	1	2	-0.2	9	9%
O=C(NCCCn1ccnc1)NC(C(F)(F)F)C(F)(F)F	-5	-3	-1.2	36	-4%
Cc1ccc(N2CC(C(N)=O)CC2=O)cc1C (configuration not stated)	-7	-1	0.3	-24	-6%
CC(C)[N+](C)(C)CC#CC(O)(c1ccccc1)c1ccccc1	-5	.	-0.6	.	4%
Cc1nn(C)cc1S(=O)(=O)NCc1ccccc1Cl	-12	.	-0.7	.	.

Screens from PubChem.

Only part of the results is shown. The share of hits here may be higher or lower than overall.
